PINK1 expr mod: modulators of PINK1 expression | AID 624263 | PINK1 immunofluorescence, high-content cytometry, 24 h | Potency, µM (highest dose often 76.6 µM), inactives show at the top dose activation (PINK1 increase), actives largely listed as activators | 410,000 compounds, 0.2% hits; active = well fitted activation curve with a large enough effect; inconclusive = small, poorly fitted or top-dose-only effect; inactive = flat fitted curve, though single readings scatter; cell line not stated here;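 note: potency is the fitted concentration of half-maximal effect; % of control where 0% means no effect; nearly all actives have a fitted effect of over 65% in size; a mitochondrial uncoupler was the plate control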
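Measures PINK1 amount and localization on or inside mitochondria by immunofluorescence. Stable cells get compounds at 5 concentrations for 24 hours before fixation and staining; CCCP controls included.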
CtBP-E1A blk: CtBP/E1A binding inhibition. 340,000 compounds, 0.49% hits. activity change, % (test concentration not listed). AlphaScreen GST-E1A/His-CtBP binding, 1536-well; hits give low values; control for the full effect not named in the record; in the data active means activity change below about -65%; inconclusive means about -30% to -65%; inactive means above about -30%; note: % is set by controls: 0 for no effect and ±100 for the full control effect
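Steps: dispense buffer (Tris pH 8.0, NaCl 300 mM, TCEP 1 mM, BSA, Tween 20); add 5X protein mix (GST-E1A, His-CtBP, 125 nM each); pin 23 nL compound; 2 h at 37 °C, dark; add 5X beads (50 ug/mL); 1 h; read.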
TRPML1 blocker: blocks the human TRPML1 channel | 390,000 compounds, 0.02% hits | TRPML1-inducible cells, Ca2+ dye fluorescence, FDSS; hits give low values; inhibition of EC80 agonist-evoked calcium signal | Q9GZU1 | activity change, negative = inhibition, % (concentration not given with the values) | AID 624415; in the data active means activity change below about -50%; inconclusive means about -30% to -50%; inactive means above about -30%;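 note: stimulus is agonist 54-4 at its EC80 concentration; % is set by controls: 0 for no effect and ±100 for the full control effect; the text of the record puts the active cut at -80%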
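Calcium fluorescence in TRPML1-DL cells induced overnight with Tet: a 110 s read after compound pin addition, then a 110 s antagonist read after challenge with 54-4 at 4 uM final (EC80).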
TRPML1 agonist: agonists of human TRPML1 channel. AID 624414. Q9GZU1. TRPML1-expressing cells, Ca2+ dye fluorescence, FDSS; host cell line not named in the record; reference of the full effect not given here. activation, % (concentration not given with the values). 410,000 compounds, 0.12% hits; in the data active = activation above about 50%; inconclusive = about 30% to 50%; inactive = below about 30%; note: 0% is about no effect; the text of the record puts the active cut at 80%
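TRPML1-DL cells, Tet-induced overnight (~16 h, 37 degrees C), loaded 45-90 min at room temperature with Ca8 no-wash calcium dye plus quencher. FDSS fluorescence: 10 s baseline, compound pin-transfer, 110 s agonist read, then EC80 54-4 (4uM final) and 110 s antagonist read.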
Six1-Eya2 inh: inhibitors of human Six1/Eya2 interaction | activity change, % (concentration not given with the values) | AlphaScreen GST-Six1/His-Eya2 binding, biochemical; hits give low values; control for the full effect not named in the record | Q15475+O00167 | 360,000 compounds, 0.56% hits | AID 651725; in the data active = activity change below about -65%; inconclusive = about -30% to -65%; inactive = above about -30%; note: % is set by controls: 0 for no effect and ±100 for the full control effect
Target sequence (O00167 whole entry, looked up): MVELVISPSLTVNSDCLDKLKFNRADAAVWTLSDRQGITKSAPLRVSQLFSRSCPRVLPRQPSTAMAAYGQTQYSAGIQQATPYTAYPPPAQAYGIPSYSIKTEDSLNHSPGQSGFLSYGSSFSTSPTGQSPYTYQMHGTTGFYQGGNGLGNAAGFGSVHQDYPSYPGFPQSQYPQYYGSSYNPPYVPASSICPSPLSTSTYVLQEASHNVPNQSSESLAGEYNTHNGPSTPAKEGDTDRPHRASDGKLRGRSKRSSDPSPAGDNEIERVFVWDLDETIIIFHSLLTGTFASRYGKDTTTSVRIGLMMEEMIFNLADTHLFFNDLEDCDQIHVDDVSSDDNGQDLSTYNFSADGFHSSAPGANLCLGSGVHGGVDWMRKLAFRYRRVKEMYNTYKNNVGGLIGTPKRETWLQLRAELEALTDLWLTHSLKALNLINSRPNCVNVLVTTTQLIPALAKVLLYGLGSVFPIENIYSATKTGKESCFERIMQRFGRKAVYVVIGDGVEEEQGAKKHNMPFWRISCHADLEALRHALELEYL
Target sequence (Q15475 whole entry, looked up): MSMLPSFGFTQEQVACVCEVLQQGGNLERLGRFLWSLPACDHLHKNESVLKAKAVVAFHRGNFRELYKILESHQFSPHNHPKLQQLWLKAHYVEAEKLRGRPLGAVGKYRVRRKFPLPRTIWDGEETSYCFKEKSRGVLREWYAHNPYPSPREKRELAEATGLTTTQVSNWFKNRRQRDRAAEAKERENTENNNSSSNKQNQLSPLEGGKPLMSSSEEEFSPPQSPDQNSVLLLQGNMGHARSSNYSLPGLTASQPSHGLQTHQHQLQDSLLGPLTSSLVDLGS
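GST-Six1 + His-Eya2 (5X stock: 250/500 nM); Tris pH 8.0, 300 mM NaCl, 0.05% BSA, 0.02% Tween 20; GSH donor/Ni acceptor beads; 1 h 37 °C dark; AlphaScreen readout.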
D2 agonist: activates the human D2 dopamine receptor; P14416; DiscoveRx PathHunter D2 beta-arrestin, luminescence, 90 min; 100% = 57 uM dopamine signal; activation, % (no concentration beside the values); 360,000 compounds, 0.084% hits; in the data active = activation above about 40%; inconclusive = about 15% to 40%; inactive = below about 15%; note: compound concentration not given in the record; the text of the record calls up to 30% inactive
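DiscoveRx PathHunter D2 beta-arrestin cells (2,100/well) attached overnight, then compound-stimulated 90 min at 37 C in HBSS/10 mM HEPES/0.1% Tween-20 buffer; beta-galactosidase complementation read by luminescence after 1 h at ambient temperature. Dopamine 57 uM final (EC100) as control.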
The depositor's hits bear a star; ? = inconclusive; . = not tested or not shown; [ ] = remark or other dose. Not a hit list. About 1% of those tested had a hit in this group.

SMILES	PINK1 expr mod	CtBP-E1A blk	TRPML1 blocker	TRPML1 agonist	Six1-Eya2 inh	D2 agonist
COc1ccc(-c2noc(C(C)NS(=O)(=O)c3ccc(NC(C)=O)cc3)n2)cc1 (configuration not stated)	0.3%	2	-12	-0.4	7	-1.2
C/C(=N\NC(=O)CN(c1ccc(Oc2ccccc2)cc1)S(C)(=O)=O)C(C)(C)C	1.6%	.	-19	0.4	-4	2.6
Cc1ccccc1CN1CCC(CNc2ncnc3onc(-c4ccc(F)cc4)c23)CC1	1.3%	.	21	3.3	.	.
Cc1ccc(-c2nnc(NC(=O)Cc3ccc(F)cc3)o2)c(C)c1	3.1%	.	11	0.6	2	-3.8
Cc1nc2cc(C(=O)NC3CCCCCC3)ccc2n1-c1ccc(Br)cc1	-1.1%	.	31	1.6	.	.
N#Cc1ccccc1NC(=S)NC(=O)c1cccnc1	0.2%	7	-14	0.5	-11	-0.6
CC(C)CCN1CC(O)=C(c2nc3ccccc3[nH]2)C1=N	-1.7%[38.3 µM]	-9	-17	0.9	-1	-0.2
CCOc1ccccc1NC(=O)Cn1nnc(C(=O)NCc2ccc3c(c2)OCO3)c1N	5.0%	.	20	1.4	2	-2.6
CN(C)C(CNC(=O)c1cccc(NS(=O)(=O)c2ccc(Br)cc2)c1)c1ccco1 (configuration not stated)	-1.4%	7	-5	-0.5	-5	-3.2
COc1ccc2[nH]c(C(=O)O)c(CCNC(=O)/C=C/c3ccc(O)c(OC)c3)c2c1	0.1%	-20	8	1.2	-4	1.0
CS(=O)(=O)N(CC(=O)NC1CCCCC1)c1cccc(Cl)c1	6.9%	1	-16	-0.9	0	-3.8
CCOC(=O)CC1COc2ccccc2N1C(=O)c1ccc(C)cc1 (configuration not stated)	0.1%	2	8	-0.6	3	2.4
COc1ccc(NC(=O)c2sc3nc(N4CCOCC4)c4c(c3c2N)CCCC4)c(OC)c1	0.0%	14	-5	-0.9	3	4.4
O=C(CN1CCN(Cc2ccccc2)CC1)N/N=C/C=C/c1ccccc1[N+](=O)[O-]	0.8%	-17	4	-0.5	-12	0.5
Cc1ccc(NC(=O)c2ccc3nc[nH]c3c2)cc1C	-0.3%	-10	-3	-0.2	-10	-1.0
Cc1c(C(=O)N/N=C/c2ccc(O)cc2)sc(=S)n1C	1.8%	-7	5	4.0	-18	-2.0
COc1cnn(-c2ccccc2)c(=O)c1SCc1ccc(Cl)c(Cl)c1	2.4%[38.3 µM]	8	24	4.9	13	-4.5
COC(=O)Cc1coc2cc(OC)ccc12	1.2%	8	5	-0.5	8	-2.0
CCN(CC)CCOC(=O)c1c(C)n(C)c2ccc(OC)cc12	0.2%	-2	-5	0.9	-8	-4.0
C/C(=N/NC(=O)c1nnn(-c2nonc2N)c1-c1ccccc1)c1ccc2c(c1)OCO2	-0.7%	0	12	0.1	0	-3.3
COc1ccc(Cl)cc1NC(=O)CN(C)C(=O)/C=C/c1ccco1	3.1%	2	-3	-0.3	-1	1.2
CC1CCN(CCCNC(=O)c2cc3sccc3n2C)CC1	-1.4%[38.3 µM]	-5	-3	1.9	-4	0.1
C=CCNc1nc(N2CCCCC2)c(C#N)c2c1CN(Cc1ccccc1)CC2	-0.5%	2	13	0.2	-7	-4.8
CC1CCCN(C(=O)COC(=O)c2cc(-c3cccs3)nn2-c2ccccc2)C1 (configuration not stated)	1.0%	-28	36	0.8	-3	-0.9
CCC1=C(c2ccc(C)cc2)S(=O)(=O)N=C1N1CCC(C(=O)NCc2ccc(N(C)C)cc2)CC1	1.3%	.	20	0.5	.	.
COc1ccc(OC)c(CCNC(=O)CC2(CC3=NS(=O)(=O)c4ccccc4N3)CCCC2)c1	1.5%	2	15	-0.7	0	-0.1
Cc1csc(NC(=O)C2CCCO2)n1 (configuration not stated)	1.9%[38.3 µM]	12	-6	0.3	3	-1.2
CCOC(=O)C(=CNc1cc(C(F)(F)F)ccc1N1CCOCC1)C(=O)OCC	0.5%	.	-8	0.4	3	3.9
COc1ccc(CN(C)Cc2c(O)ccc3ccccc23)cc1	2.6%	17	23	3.6	14	2.1
COc1ccccc1CC(NC(C)=O)C(=O)NC1CCN(C(=O)Nc2cccc(F)c2)CC1 (configuration not stated)	1.3%	-14	-9	0.1	-1	-3.9

Sorted by number of heavy atoms (rising): 13 of the compounds above.
SMILES	PINK1 expr mod	CtBP-E1A blk	TRPML1 blocker	TRPML1 agonist	Six1-Eya2 inh	D2 agonist
Cc1csc(NC(=O)C2CCCO2)n1 (configuration not stated)	1.9%[38.3 µM]	12	-6	0.3	3	-1.2
COC(=O)Cc1coc2cc(OC)ccc12	1.2%	8	5	-0.5	8	-2.0
Cc1c(C(=O)N/N=C/c2ccc(O)cc2)sc(=S)n1C	1.8%	-7	5	4.0	-18	-2.0
CC1CCN(CCCNC(=O)c2cc3sccc3n2C)CC1	-1.4%[38.3 µM]	-5	-3	1.9	-4	0.1
CCN(CC)CCOC(=O)c1c(C)n(C)c2ccc(OC)cc12	0.2%	-2	-5	0.9	-8	-4.0
COc1ccc(Cl)cc1NC(=O)CN(C)C(=O)/C=C/c1ccco1	3.1%	2	-3	-0.3	-1	1.2
CCOC(=O)CC1COc2ccccc2N1C(=O)c1ccc(C)cc1 (configuration not stated)	0.1%	2	8	-0.6	3	2.4
CCOC(=O)C(=CNc1cc(C(F)(F)F)ccc1N1CCOCC1)C(=O)OCC	0.5%	.	-8	0.4	3	3.9
O=C(CN1CCN(Cc2ccccc2)CC1)N/N=C/C=C/c1ccccc1[N+](=O)[O-]	0.8%	-17	4	-0.5	-12	0.5
C/C(=N/NC(=O)c1nnn(-c2nonc2N)c1-c1ccccc1)c1ccc2c(c1)OCO2	-0.7%	0	12	0.1	0	-3.3
COc1ccccc1CC(NC(C)=O)C(=O)NC1CCN(C(=O)Nc2cccc(F)c2)CC1 (configuration not stated)	1.3%	-14	-9	0.1	-1	-3.9
COc1ccc(OC)c(CCNC(=O)CC2(CC3=NS(=O)(=O)c4ccccc4N3)CCCC2)c1	1.5%	2	15	-0.7	0	-0.1
CCC1=C(c2ccc(C)cc2)S(=O)(=O)N=C1N1CCC(C(=O)NCc2ccc(N(C)C)cc2)CC1	1.3%	.	20	0.5	.	.

More entries.
SMILES	PINK1 expr mod	CtBP-E1A blk	TRPML1 blocker	TRPML1 agonist	Six1-Eya2 inh	D2 agonist
Cc1cc(C(=O)COc2ccc(Cl)cc2Br)c(C)n1C	-2.0%	-6	34	4.5	-15	-0.5
O=C(CCC(=O)N1CCN(S(=O)(=O)c2ccc(Cl)cc2)CC1)NCc1cccc(C(F)(F)F)c1	1.9%	3	24	-0.6	-3	-1.3
Cc1cccc(-c2noc(CN(C(C)C)S(=O)(=O)c3ccc(F)cc3)n2)c1	4.3%	36	30	6.9	23	1.8
O=S(=O)(NCc1ccccc1)c1ccccc1NCc1ccc(Cl)cc1	30%	14	50	0.9	9	0.2
CCOc1ccc(CNC(=O)c2ccc3c(c2)N(Cc2ccccc2)CCS3)cc1	-0.3%	.	-1	2.6	.	.
CC1=C(C(=O)N2CCOCC2)CC(CC(=O)NCCN2CCOCC2)C(=O)N1Cc1ccc(C(C)(C)C)cc1 (configuration not stated)	0.7%	-23	6	-0.1	1	-6.0
Cc1ccc(C)c(OCCC(=O)OCC(=O)NC2CCCC2)c1	1.8%	7	-5	0.2	13	0.9
O=C(CCCCC(=O)NNC(=O)COc1ccccc1)NNC(=O)COc1ccccc1	6.4%	3	14	0.8	4	2.0
COc1ccc(OC)c(NC(=O)c2nnn(CC(=O)Nc3ccc4c(c3)OCO4)c2N)c1	6.4%	.	3	1.5	-5	4.5
CCCCN(C)CCNC(=O)CCn1nc(-c2ccc(C)cc2)ccc1=O	-0.4%	3	-4	-1.0	3	-2.8
O=C(Nc1ccc(NC(=O)C2CC2)nc1)c1ccncc1	-0.5%	-2	5	0.5	-2	-3.6
COC(=O)c1ccc(Nc2cc(C)nc3nc(C)nn23)cc1	0.5%	?	0	1.7	?	-2.5
CC(C)CC(C(=O)O)N1C(=O)[C@@H]2[C@H](C1=O)[C@@H]1C[C@H]2C(Br)C1Br (some centres not stated)	1.4%	6	-1	-0.4	3	-5.7
COc1cccc(Cn2nnc(C(=O)NCc3ccc4c(c3)OCO4)c2N)c1	0.2%	-8	63	-0.3	0	1.8
CCCc1c(C)nc2ccc(OC)cc2c1SCCC(=O)O	-2.9%	2	20	1.2	-1	-0.9

A different layout for some results above.
SMILES,PINK1 expr mod,CtBP-E1A blk,TRPML1 blocker,TRPML1 agonist,Six1-Eya2 inh,D2 agonist
CC1=C(C(=O)N2CCOCC2)CC(CC(=O)NCCN2CCOCC2)C(=O)N1Cc1ccc(C(C)(C)C)cc1 (configuration not stated),0.7%,-23,6,-0.1,1,-6.0
Cc1ccc(C)c(OCCC(=O)OCC(=O)NC2CCCC2)c1,1.8%,7,-5,0.2,13,0.9

Remaining list, next part.
SMILES	PINK1 expr mod	CtBP-E1A blk	TRPML1 blocker	TRPML1 agonist	Six1-Eya2 inh	D2 agonist
Clc1ccc(-c2nn3cnnc3s2)c(Cl)c1	-1.8%	-3	10	-1.3	-1	-2.2
CSc1cccc(NC(=O)C(C)NS(=O)(=O)c2ccc(F)cc2)c1 (configuration not stated)	4.7%[38.3 µM]	1	26	0.2	2	-3.3
CCC(=O)Nc1ccc(S(=O)(=O)NC[C@H]2O[C@@H](n3cnc4c(=O)[nH]c(N)nc43)[C@H](O)[C@@H]2O)cc1	3.0%	-3	-28	2.0	1	4.9
CCC(C)(C)NC(=O)/C=C/c1cnc2ccccc2n1	1.8%	.	4	0.4	-5	3.0
c1cncc(CNc2ncnc3sc4c(c23)CCC4)c1	-0.7%	5	-5	-0.3	10	-2.2
CCOC(=O)c1c(NC(=O)COc2ccc(F)cc2)sc2c1CCC(C)C2 (configuration not stated)	1.3%	.	-4	-0.4	.	.
O=C(CSc1nnc(-c2cccnc2)n1Cc1ccco1)c1ccc2ccccc2c1	-3.0%	-17	3	0.9	-7	-0.9

Assay outcomes (PubChem)
